CtBP-E1A inh: CtBP/E1A binding inhibition; AlphaScreen GST-E1A/His-CtBP binding, 1536-well; hits give low values; control for the full effect not named in the record; activity change, % (test concentration not listed); actives 0.49% (n = 340,000); in the data active means activity change below about -65%; inconclusive means about -30% to -65%; inactive means above about -30%; also: % is scaled to controls: 0 for no effect and ±100 for the full control effect; compound concentration not given in the record
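In 5 uL wells, 23 nL compound meets equimolar GST-E1A and His-CtBP (5X stock 125 nM each) for 2 h, 37 °C. Beads (5X, 50 ug/mL) then 1 h, 37 °C, dark.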
D2 ag: human D2 receptor agonism in beta-arrestin assay; DiscoveRx PathHunter D2 beta-arrestin, luminescence, 90 min; 100% = 57 uM dopamine signal; activation, % (no concentration beside the values); actives 0.084% (n = 360,000); in the data active = activation above about 40%; inconclusive = about 15% to 40%; inactive = below about 15%; also: compound concentration not given in the record; the text of the record calls up to 30% inactive
Target sequence (P14416 whole entry, looked up): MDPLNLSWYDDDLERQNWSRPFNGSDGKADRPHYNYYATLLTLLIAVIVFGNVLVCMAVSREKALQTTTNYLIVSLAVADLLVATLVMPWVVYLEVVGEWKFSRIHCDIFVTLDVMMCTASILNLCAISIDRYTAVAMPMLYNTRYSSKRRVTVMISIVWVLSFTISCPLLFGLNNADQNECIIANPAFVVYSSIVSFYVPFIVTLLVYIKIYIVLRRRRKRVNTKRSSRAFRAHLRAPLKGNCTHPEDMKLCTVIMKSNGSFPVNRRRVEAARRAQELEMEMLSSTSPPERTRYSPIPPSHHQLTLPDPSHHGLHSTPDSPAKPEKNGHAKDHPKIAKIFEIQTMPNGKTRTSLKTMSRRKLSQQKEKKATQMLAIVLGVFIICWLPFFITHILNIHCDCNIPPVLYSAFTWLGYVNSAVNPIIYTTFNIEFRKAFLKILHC
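DiscoveRx PathHunter D2 beta-arrestin cells (2,100/well) attached overnight, then compound-stimulated 90 min at 37 C in HBSS/10 mM HEPES/0.1% Tween-20 buffer; beta-galactosidase complementation read by luminescence after 1 h at ambient temperature. Dopamine 57 uM final (EC100) as control.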
TRPML1 blocker: blocks the human TRPML1 channel; actives 0.02% (n = 390,000); AID 624415; TRPML1-inducible cells, Ca2+ dye fluorescence, FDSS; hits give low values; inhibition of EC80 agonist-evoked calcium signal; activity change, negative = inhibition, % (no concentration beside the values); Q9GZU1; in the data active means activity change below about -50%; inconclusive means about -30% to -50%; inactive means above about -30%;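 also: stimulus is agonist 54-4 at its EC80 concentration; % is scaled to controls: 0 for no effect and ±100 for the full control effect; compound concentration not given in the record; the text of the record puts the active cut at -80%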
Target sequence (Q9GZU1 whole entry, looked up): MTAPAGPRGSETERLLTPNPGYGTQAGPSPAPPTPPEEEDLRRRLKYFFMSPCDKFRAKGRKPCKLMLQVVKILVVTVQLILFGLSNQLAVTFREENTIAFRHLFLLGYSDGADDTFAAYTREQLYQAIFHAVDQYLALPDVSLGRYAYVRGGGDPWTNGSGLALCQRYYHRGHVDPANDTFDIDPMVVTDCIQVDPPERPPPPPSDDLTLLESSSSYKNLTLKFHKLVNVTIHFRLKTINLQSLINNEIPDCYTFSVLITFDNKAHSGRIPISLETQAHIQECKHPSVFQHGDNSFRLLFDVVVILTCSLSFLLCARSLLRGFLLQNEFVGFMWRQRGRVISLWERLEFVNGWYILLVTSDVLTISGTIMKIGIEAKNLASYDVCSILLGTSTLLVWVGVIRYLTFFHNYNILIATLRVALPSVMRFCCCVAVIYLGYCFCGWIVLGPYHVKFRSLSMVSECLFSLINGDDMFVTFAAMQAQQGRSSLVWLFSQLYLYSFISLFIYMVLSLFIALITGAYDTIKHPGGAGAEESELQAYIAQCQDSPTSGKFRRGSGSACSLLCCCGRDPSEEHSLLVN
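Tet-induced TRPML1-DL cells loaded with Ca8 no-wash calcium dye were read kinetically on FDSS. Compound addition was followed by EC80 agonist 54-4 (4 uM final); inhibition was read over 110 s.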
Six1-Eya2 inh: blocks human Six1 binding to Eya2; Q15475+O00167; AlphaScreen GST-Six1/His-Eya2 binding, biochemical; hits give low values; control for the full effect not named in the record; activity change, % (no concentration beside the values); actives 0.56% (n = 360,000); AID 651725; in the data active = activity change below about -65%; inconclusive = about -30% to -65%; inactive = above about -30%; also: % is scaled to controls: 0 for no effect and ±100 for the full control effect; compound concentration not given in the record
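AlphaScreen luminescence read after one hour at 37 °C in darkness. Pin-transferred compounds met GST-Six1 and His-Eya2 protein (5X stock 250 nM/500 nM) plus glutathione donor and Ni-chelate acceptor beads (5X, 50 ug/mL).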
PINK1 modulator: PINK1 expression modulation; PINK1 immunofluorescence, high-content cytometry, 24 h; Potency, µM (series often up to 76.6 µM), inactives show at the top dose activation (PINK1 increase), usual class: activators; actives 0.2% (n = 410,000); active = well fitted activation curve with a large enough effect; inconclusive = small, poorly fitted or top-dose-only effect; inactive = flat fitted curve, though single readings scatter; cell line not stated here;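 also: potency is read from the fitted curve at half-maximal effect; % of control where 0% means no effect; nearly all actives have a fitted effect of over 65% in size; a mitochondrial uncoupler was the plate control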
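Decision-based qHTS: stable cells, 24 h exposure to five compound concentrations, CCCP as control. Fixed cells stained for PINK1 plus nuclear, mitochondrial and cell markers, cytometer read.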
TRPML1 ag: human mucolipin-1 channel agonism; Q9GZU1; TRPML1-expressing cells, Ca2+ dye fluorescence, FDSS; host cell line not named in the record; reference of the full effect not given here; activation, % (concentration not given with the values); actives 0.12% (n = 410,000); in the data active = activation above about 50%; inconclusive = about 30% to 50%; inactive = below about 30%; also: 0% is about no effect; the text of the record puts the active cut at 80%
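Calcium fluorescence on an FDSS kinetic reader gave the read-out. Tet-induced TRPML1-DL cells were plated overnight, dye-loaded (Ca8 with quencher, 45-90 min, room temperature, dark), then read 110 s after compound addition, and again 110 s after 4uM final 54-4 (EC80).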
* hit, by the source's call; u = inconclusive; x = not tested or not shown; & = joins results of further samples; [ ] = another dose, or the depositor's remark. Rows were taken by chance; any-hit rate near 1%.

SMILES	CtBP-E1A inh	D2 ag	TRPML1 blocker	Six1-Eya2 inh	PINK1 modulator	TRPML1 ag
COc1ccnc(NCc2ccc(Cl)cc2)c1C#N	10	1.6	6	6	5.1%[38.3 µM]	-0.3
O=C(Nc1ccc(N2CCN(C(=O)c3ccccc3)CC2)cc1)c1ccc(Br)o1	-7	1.0	6	-20	2.9%	1.7
CN(C)C(=O)c1ccc(NC(=O)COc2ccc([N+](=O)[O-])cc2)cc1	-14	-4.4	-3	8	-0.1%	0.0
CSc1ccc(CN2CCC(C)(Oc3ccc(C(C)=O)cc3)C2)cc1 (stereo not drawn)	-11	-0.4	x	-16	2.5%	-0.5
O=C(Nc1cccc([N+](=O)[O-])c1)c1cc(S(=O)(=O)N2CCOCC2)cs1	3	-0.8	-11	-10	3.1%	-0.1
COc1cc2c(cc1OC)C(c1cc3ccc(C)cc3[nH]c1=O)N(C(=O)c1ccco1)CC2 (stereo not drawn)	-5	-1.0	22	26	2.1%	0.5
C[C@@H](C(=O)N1CCN(C(=O)OC(C)(C)C)CC1)n1cc(CCCN=C(NC(=O)OC(C)(C)C)NC(=O)OC(C)(C)C)nn1	3	-1.6	2	-2	-0.3%	-1.0
CCCCCCOC(=O)C(C#N)c1nc2ccccc2nc1N1CCN(C)CC1 (stereo not drawn)	-7	-1.8	31	-21	-0.4%	0.0
COc1ccc(Nc2nc(NC(C)(C)C)nc(N3CCOCC3)n2)c(OC)c1	u	-9.6	3	-27	9.4%	3.4
O=C(NCCC1=CCCCC1)C1CCN(C(=O)N2CCOc3ccc(Cl)cc32)CC1	x	x	-9	x	-0.9%	0.3
COc1ccc(S(=O)(=O)N2CCN=C2SCc2cccc(C)c2)cc1	23	-8.5	20	19	0.3%	1.6
Cc1ccc(NC(=S)N2CCN(c3ccccc3F)CC2)c(C)c1	2	-6.4	9	5	-0.8%	-1.1
Cc1ccc(NC(=O)c2ccccc2F)c(NC(=O)c2ccccc2F)c1	-15	4.0	-7	-1	-1.7%	1.8
CCOC(=O)Cc1cnc(NC(=O)CSc2nc(C)c(CC)c(=O)[nH]2)s1	x	-1.1	-5	-2	1.0%	-0.8
CCOC(=O)c1c(-c2cccc(N)c2)cn2ccccc12	-7	-1.7	3	9	0.3%	0.2
CCOc1ccccc1NC(=O)CSc1nnnn1Cc1ccccc1	12	1.6	-5	0	u	0.8
CCCCOC(=O)Nc1cc(C)c(Cl)cc1OC	39	-5.0	-10	38	0.1%	1.4
Cc1c(Nc2ncccc2C(=O)O)cccc1C(F)(F)F	2	-4.2	24	-1	1.5%	1.9
COc1ccc(-c2nc(-c3ccccc3)c(-c3ccccc3)[nH]2)cc1Br	x	x	15	x	4.5%	3.0
CC(=O)NC(c1ccccc1)c1nc(-c2ccc3ccccc3c2)cs1 (stereo not drawn)	2	-2.4	x	1	11%	0.2
COc1ccc(C2(c3ccc(OC)cc3)NC(=O)N(CC(=O)Nc3ccccc3C(F)(F)F)C2=O)cc1	-1	1.9	-1	-7	-2.6%	-0.5
COc1ccc(N2C(=O)CC(NNc3ncc(Cl)cc3Cl)C2=O)cc1 (stereo not drawn)	-1	-7.8	0	u	0.8%	-0.1
COc1ccccc1Nc1c2ccccc2nc2ccccc12	-20	0.4	2	-13	u	-0.1
CCOC(=O)c1cc(CO)cc(C(=O)OCC)c1	1	-5.7	31	-2	-2.3%	-0.4
Clc1ccccc1-c1nnc(CNC2CC2)o1	3	1.5	12	-1	0.3%	0.5
COc1ccc(NC(=O)c2nc[nH]c2C(=O)N2CCN(c3ccccc3)CC2)cc1	3	-3.7	1	3	0.7%	1.7
COc1ccc2c(c1)c1c(c(=O)n(-c3cc(Cl)ccc3C)c(=O)n1CC(=O)N1CCCC1)n2C	x	x	-5	x	0.6%	-0.2
COc1ccccc1-n1cnnc1SCC(=O)Nc1ncc(Cl)cc1Cl	1	-2.6	-25	3	-0.3%	2.4
O=c1c(-c2ccccc2)coc2c(CN3CCCCC3)c(O)ccc12	-2	-4.1	-6	10	0.4%	0.1
Cc1cc(/C=N\NC(=O)c2cccs2)c(C)n1-c1ccc2ncccc2c1	-22	1.6	45	-13	-0.3%	0.6
CCOc1ccc(/C=N/NC(=O)c2[nH]c3ccc(C)cc3c2C)cc1	-6	4.9	1	-13	12%	-0.5
CC(=O)Nc1ccc(C(=O)CN2C(=O)CSC2=O)cc1	0	6.3	-7	1	1.0%	1.2
CC(=O)c1sc2nc(CSc3nnnn3-c3ccccc3)[nH]c(=O)c2c1C	-8	2.6	-2	-17	0.0%	2.9
CCOC(=O)c1c(C)c(-c2ccccc2)n(CC(=O)NC2CCCCCC2)c1C	x	x	20	x	-0.8%	-1.8
COc1ccc(CC(=O)N2CC3(C)CC2CC(C)(C)C3)cc1OC (stereo not drawn)	-2	0.2	9	12	0.8%	-0.7
CCc1nc2ccccc2n1CC(=O)N1CCN(Cc2ccccc2)CC1	x	0.3	4	1	2.8%	-0.7
CNC(=S)N1CCN(c2ccc([N+](=O)[O-])cc2)CC1	2	-3.2	14	0	0.0%	0.2
Cc1c(NC(=O)c2cc(-c3cccs3)nc3ccccc23)c(=O)n(-c2ccccc2)n1C	-19	u	-12	-7	0.2%	0.0
Cc1ccc(OCC(O)Cn2c(NCCc3ccccc3)nc3c2c(=O)[nH]c(=O)n3C)cc1 (stereo not drawn)	-1	3.4	12	-2	-0.2%	1.8
Cc1ccc(C)c(N2CCN(C(=O)Cc3c(C(=O)O)[nH]c4ccc(Cl)cc34)CC2)c1	1	-1.9	-5	12	2.5%	1.0
O=C(O)c1cccc(S(=O)(=O)Nc2ccc(O)c(Sc3nc4ccccc4s3)c2)c1	1	-0.6	-14	10	4.4%	0.3
Cc1ccc(CN(C(=O)COc2ccc([N+](=O)[O-])cc2)c2ccccn2)o1	x	x	1	x	-0.5%	-0.3
CCOC(=O)c1c(C)[nH]c(C(=O)COC(=O)CN2C(=O)C3CCCCC3C2=O)c1C (stereo not drawn)	-1	-2.1	9	-1	-2.9%	-1.1
CCc1ccc(NC(=S)NC2CC3CCCC(C2)N3Cc2cccs2)cc1 (stereo not drawn)	14	-0.4	2	-22	x	0.3
COC(=O)c1ccc(S(N)(=O)=O)o1	4	-3.0	22	10	-0.1%	-0.6
Cc1ccc(C(=O)CCc2ccc(N)cc2)cc1	-12	-9.7	-24	-9	-2.9%	2.0
COCCSc1ccccc1C(=O)N1CCOCC1	7	-2.8	-17	4	11%[38.3 µM]	-0.1
CC(=O)c1cnc2nc(C)nn2c1C	4	-3.9	-7	-2	0.2%	-0.4
COc1cccc(-c2cn3nc4c(nc3n2)CCCC4)c1	4	-2.2	-12	9	2.4%	-0.1
Nc1nc2ccccc2cc1C(=O)NCCCCc1ccccc1	3	x	x	15	0.9%	-0.9
CCN(CC(=O)NCc1ccc(F)cc1)C(=O)CCNS(=O)(=O)c1cccc(C)c1	0	-2.5	-6	4	-0.5%	0.4
COc1ccccc1N1CCN(CC(O)COCc2cccs2)CC1 (stereo not drawn)	11	-1.3	-3	7	0.0%	0.0
CCC(=O)N1CCc2cc(S(=O)(=O)NCCC(=O)NCc3ccc(F)cc3)ccc21	2	3.5	5	2	0.1%	-0.9
CC(=O)c1c(C)[nH]c(C(=O)NCc2ccc(F)cc2)c1C	0	-0.9	-3	-1	-1.6%	1.6
CCOc1ccc(NC(=O)CN2C(=O)/C(=C3\SC(=S)N(C4CCS(=O)(=O)C4)C3=O)c3ccccc32)cc1 (stereo not drawn)	-2	-0.1	-10	14	-1.9%	0.7
CCOC(=O)N1CCN(S(=O)(=O)N2CCCC(C(=O)NCc3cc(OC)ccc3OC)C2)CC1 (stereo not drawn)	-1	-3.0	25&0	3	1.2%&-0.6%	0.8&-1.1
CCC(=O)Nc1ccc(C)cc1-c1nc2ccccc2n(C(C)C(=O)Nc2ccccc2CC)c1=O (stereo not drawn)	x	x	-15	x	1.4%	0.3
COc1cc(/C=C2\N=C(c3ccccc3)NNC2=O)cc(OC)c1OC	6	-0.4	-14	4	3.0%	0.2
CN(C(=O)c1ccc(NC(=O)C2CC=CCC2C(=O)O)cc1)c1ccccc1 (stereo not drawn)	8	-2.7	6	2	7.5%[38.3 µM]	-0.6
CCCCNC(=O)C1(C)CCN1C(=O)c1sccc1C (stereo not drawn)	0	-7.0	x	-4	1.0%	-1.0

(list continues)
SMILES	CtBP-E1A inh	D2 ag	TRPML1 blocker	Six1-Eya2 inh	PINK1 modulator	TRPML1 ag
CC(C(=O)Nc1ccon1)N1C(=O)c2ccccc2S1(=O)=O (stereo not drawn)	3	-3.7	3	4	-0.1%	-0.3
COc1ccc(OC)c(/C=N/Nc2nncn2/N=C/c2cc(OC)ccc2OC)c1	-3	3.7	1	-13	9.2%	-0.8
CC(C)OC(=O)CN1C(=O)c2ccccc2C1=O	15	-2.1	35	-16	0.2%	-0.2
CCn1cc(/C=N\NC(=O)c2ccccc2Cl)cn1	10	-1.9	0	-13	1.9%	-0.2
CCCCn1c(-c2cccnc2)n[nH]c1=S	1	4.0	12	3	-1.5%	0.3
Cc1ccc(S(=O)(=O)NCC2CCC(C(=O)NCc3ccccn3)CC2)cc1 (stereo not drawn)	4	-2.2	8	4	0.4%	-1.1
Cc1ccc(CNC(=O)c2ccccc2NC(=O)c2nsc3ccccc23)cc1	x	x	4	x	17%	1.9
O=C(CSc1ncc2c(n1)-c1ccccc1N(Cc1ccc(Cl)cc1)S2(=O)=O)c1ccc(Cl)cc1	x	x	-1	x	4.3%	0.8
COc1cccc(OCC(O)CNC2CCCC2)c1 (stereo not drawn)	x	-2.2	-16	9	2.6%	-0.7
CC1(C)Cc2c(c(N3CCOCC3)nc3sc4c(NCc5ccco5)nnnc4c23)CS1	-13	-0.1	1	-21	-0.8%	0.6
O=C(Nc1ccc(Br)cc1)C1CCN(C(=O)c2ccc(F)cc2)CC1	-20	0.3	-4	0	-1.2%	-0.7

Whole records as entered above. Order of screens: CtBP-E1A inh, D2 ag, TRPML1 blocker, Six1-Eya2 inh, PINK1 modulator, TRPML1 ag
Results for CC(C(=O)Nc1ccon1)N1C(=O)c2ccccc2S1(=O)=O (stereo not drawn) = 3, -3.7, 3, 4, -0.1%, -0.3
Results for CCCCn1c(-c2cccnc2)n[nH]c1=S = 1, 4.0, 12, 3, -1.5%, 0.3
Results for CC1(C)Cc2c(c(N3CCOCC3)nc3sc4c(NCc5ccco5)nnnc4c23)CS1 = -13, -0.1, 1, -21, -0.8%, 0.6
Results for O=C(Nc1ccc(Br)cc1)C1CCN(C(=O)c2ccc(F)cc2)CC1 = -20, 0.3, -4, 0, -1.2%, -0.7

Molecules above with bromine:
SMILES	CtBP-E1A inh	D2 ag	TRPML1 blocker	Six1-Eya2 inh	PINK1 modulator	TRPML1 ag
O=C(Nc1ccc(N2CCN(C(=O)c3ccccc3)CC2)cc1)c1ccc(Br)o1	-7	1.0	6	-20	2.9%	1.7
COc1ccc(-c2nc(-c3ccccc3)c(-c3ccccc3)[nH]2)cc1Br	x	x	15	x	4.5%	3.0
O=C(Nc1ccc(Br)cc1)C1CCN(C(=O)c2ccc(F)cc2)CC1	-20	0.3	-4	0	-1.2%	-0.7
